# Assay outcomes as filed in PubChem BioAssay.
# Bead autofluor = compound fluorescence in toxin protease inhibitor counterscreen | compound autofluorescence counterscreen, microsphere flow cytometry; hits give high values | fluorescence intensity (test concentration not listed) | 360,000 tested, 3.1% active | AID 624483;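 active = at least 3 SD above the mean of all compounds, about 16000 in these data; inconclusive = too few beads counted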;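 also: 100 nL of 1 mM stock went into each well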
# RN4220 kill = kills Staphylococcus aureus RN4220 | S. aureus RN4220 growth, OD600, 16 h | inhibition, % (test concentration not listed) | 330,000 tested, 0.33% active | AID 1259311;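 active = z-score of -3 or lower and OD600 up to 0.18 on both plates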;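 also: plate controls were untreated cells for no effect and reference antibiotic for full effect; stock transfer was 100 nL into about 80 µL; one replicate is shown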
# PrP 5UTR inh = inhibition of PrP 5' UTR reporter expression; cell-based PrP 5' UTR mRNA reporter, plate reader; inhibition, % (test concentration not listed); 340,000 tested, 0.35% active;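 active = every replicate at 50% or more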;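 also: 0 = median of the neutral control wells; tested in H4 reporter cells; numbers are from one replicate; inactives centre near -14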
# BJeLR lethal = kills HRASV12-expressing BJeLR cells; BJeLR (HRASV12) viability, CellTiter-Glo ATP luminescence, 48 h; reference of the scale not given here; 300,000 tested, 0.17% active; inhibition, % (concentration not given with the values); AID 1554;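 active = replicate mean above 50%; inconclusive = above 50% but judged a plate artefact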;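 also: 50 nL library stock added to about 25 µL; numbers are from one replicate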
# Mtb hypoxia rep = reduces hypoxia-regulated biosensor signal in M. tuberculosis; AID 1159583; fluorescence inhibition, % (no concentration beside the values); 300,000 tested, 0.1% active; M. tuberculosis hypoxia-regulated fluorescent reporter, fluorescence;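 active = 35 to 45% if threefold the growth effect, above 45% if 1.5-fold the growth effect; inactive = the rest, general growth blockers included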;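 also: wells of about 50 µL received 100 nL stock; 0% = vehicle wells and 100% = reference inhibitor wells; whole bacteria with a GFP reporter of the hypoxia response; strong numbers were not always called active; many hits fall short of the cut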
# Sa ugtP lethal = kills S. aureus RN4220 lacking UgtP; S. aureus RN4220 ugtP deletion, OD600 growth, 16 h; some inactives read as strong as hits; 330,000 tested, 0.54% active; growth inhibition, % (test concentration not listed);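 active = z-score under -3 and OD600 up to 0.15 on both plates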;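 also: plate controls were untreated wells for no effect and antibiotic for full effect; wells of about 80 µL received 100 nL stock; the first replicate is given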
# Mtb hypoxia rep growth = further read-out of Mtb hypoxia rep, marked with its call; growth inhibition, %; measured here: M. tuberculosis growth (absorbance);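 0% = vehicle and 100% = reference antibiotic; read after six days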
# * hit, by the source's call; ? = inconclusive; · = not tested or not shown. Outcome played no part in choosing rows; 4% or so of the library scored in one or more.
molecule,Bead autofluor,BJeLR lethal,Mtb hypoxia rep growth,RN4220 kill,PrP 5UTR inh,Sa ugtP lethal,Mtb hypoxia rep
Cc1c(N(C(=O)CNC(=O)c2ccccc2)C2(C(=O)NC3CCCC3)CCCCC2)c(=O)n(-c2ccccc2)n1C,3699,-9,0,4.0,-13,1,0
COc1ccc(-n2c(CN3CCN(c4ccccc4)CC3)nc3ccc([N+](=O)[O-])cc3c2=O)c(OC)c1,3926,0,5,-0.8,7,4,14
CC(NC(=O)c1ccc(Cl)cc1)C1CC2CCC1C2 (centres undefined),3954,-2,·,1.4,-18,-4,·
CC(=NNC(=O)c1cccc(N2CCCC2=O)c1)c1ccc(N)cc1,·,·,9,4.7,·,6,14
Cc1occc1C(=O)Nc1ccc2c(c1)CCC2,10785,5,11,5.3,-96,4,8
Clc1ccc(OCCCN2CCCC2)cc1Cl,2795,-2,0,2.4,10,8,11
C/C(=N\Nc1cc(N2CCOCC2)ncn1)c1ccc(O)cc1,3229,13,·,·,-8,·,·
Cc1cc(=O)[nH]c(NN=Cc2c(C)nn(-c3ccccc3)c2C)n1,·,·,5,-2.2,·,5,9
CCOC(=O)C1=C(COC(=O)CNC(=O)c2ccc(Cl)cc2Cl)NC(=O)NC1C (centres undefined),?,-11,8,3.6,-18,-2,2
Cc1ccc(C)c(Cn2c(C(C)O)nc3ccccc32)c1 (centres undefined),3554,0,·,1.8,-17,1,·
CCC(C)NCCOCCOc1ccc(Cl)cc1Br (centres undefined),4372,4,17,-6.2,-28,-3,7
O=C(/C=C(/c1ccc(Cl)cc1)n1cncn1)c1ccccc1,2125,9,-17,6.1,-9,2,24
COc1ccc(Cc2nnn(CC(=O)O)n2)cc1,5502,9,1,-1.1,-20,-3,9
CC(=O)Oc1ccc2c(=O)c(-c3nc4ccccc4s3)coc2c1,4399,7,3,-2.8,-38,14,10
NS(=O)(=O)c1ccc(S(=O)(=O)N2CCN(C3CCCC3)CC2)cc1,3893,5,-5,1.8,-19,-2,8
O=C(O)CCCNC(=O)C(=Cc1ccccc1F)NC(=O)c1ccccc1,·,·,12,-0.4,·,0,-3
COc1ccc(Cl)cc1NC(=O)COC(=O)c1ccc(Cl)nc1,8175,·,8,1.9,-9,4,7
Cc1ccc(OCc2n[nH]c(=S)n2-c2ccccc2)cc1C,4496,-12,2,5.7,-9,2,10
CCOc1cccc(Oc2ncccc2C(=O)/C(C#N)=C/N(C)C)c1,7983,0,3,3.9,-7,3,3
O=C(CNc1ccccc1N1CCCC1=O)Nc1cc(C(F)(F)F)ccc1-n1cncn1,3711,·,-5,4.7,-15,6,5
O=C(NCCc1cccc(Cl)c1)c1ccc(OC2CCN(Cc3ccccn3)CC2)cc1,4417,19,·,·,39,·,·
CN(CC(=O)Nc1ccccc1C(F)(F)F)Cc1c(O)ccc2ccccc12,4351,-1,9,-5.7,-14,15,8
Cc1ccc(NC(=O)C2CCN(S(=O)(=O)c3ccc4c(c3)NC(=O)C(C)S4)CC2)cc1C (centres undefined),5550,-3,12,-6.8,-5,-5,11
COc1ccc(NC(=O)C(Sc2nnc(-c3ccncc3)n2-c2ccccc2C)c2ccccc2)cc1Cl (centres undefined),10263,-1,6,-0.6,-8,-7,-1
CN(CC(=O)Nc1cccc(F)c1)C(=O)c1cc2c(s1)CCCCC2,·,-1,-3,-1.0,-14,-1,2

# Additional records
molecule,Bead autofluor,BJeLR lethal,Mtb hypoxia rep growth,RN4220 kill,PrP 5UTR inh,Sa ugtP lethal,Mtb hypoxia rep
Cn1c(O)c(C=NCC2CCNCC2)c(=O)n(C)c1=O,·,0,6,4.3,·,1,-1
Cc1cc(-c2ccccc2)nc(Cl)c1C#N,2433,-7,·,17,-4,-6,·
CC1(C)NC(=O)N(CCSc2ccc(Cl)cc2)C1=O,19822*,-1,13,4.9,-26,-1,17
COc1ccc(NN=Nc2ccc([N+](=O)[O-])cc2)cc1,2897,1,9,-2.6,-48,-2,17
CC1=NN(c2ccccc2)C(=O)/C1=C\c1cn(CCC#N)nc1-c1ccc(Cl)cc1,2021,2,·,·,-4,·,·
COc1ccc(CN(Cc2ccncc2)C(=O)CCC(=O)O)cc1,11902,-11,4,3.2,-26,3,5
COc1ccc(C(=O)OCC(=O)Nc2cccc(S(=O)(=O)N3CCCCCC3)c2)cc1[N+](=O)[O-],3522,·,4,0.6,-8,-5,-3
O=C1CCCN1CN(C(=O)c1ccc2c(c1)OCO2)c1ccc(F)cc1,21432*,10,1,-1.4,-19,-5,-2
COc1ccc2nc(NC(=O)CN3C(=O)NC4(CCCC4)C3=O)sc2c1,6643,3,0,-2.0,-6,7,0
CCOc1c(OC)cccc1C1CC(=O)Nc2cc3c(cc21)OCCO3 (centres undefined),5892,6,10,0.8,21,10,8
O=C(CN1C(=O)NC2(CCCCC2)C1=O)N(Cc1ccco1)Cc1cccs1,·,-9,6,2.2,-12,15,1
CC(OC(=O)c1cccc(S(=O)(=O)N2CCN(C)CC2)c1)C(=O)Nc1ccc(C(N)=O)cc1 (centres undefined),5704,·,-4,1.4,-6,0,9
CCSc1nnc(NC(=O)C(CC)(C(F)(F)F)C(F)(F)F)s1,3329,11,5,35,-12,15,3
CCOCCCNC(=O)C1c2ccccc2C(=O)N2CCc3ccccc3C12 (centres undefined),16166*,13,5,0.1,-1,3,20
CC(C)N=C(NS(=O)(=O)c1cccs1)c1ccccc1,4907,1,13,3.1,-10,2,2
CCOCCCNC(=O)C(c1ccc(C)cc1)N(Cc1cccs1)C(=O)CNC(C)=O (centres undefined),6368,-5,0,4.2,-11,5,6
COc1ccc(CNC(=O)[C@H](C)N2C(=O)N3CCc4c([nH]c5ccc(OC)cc45)[C@@]3(C)C2=O)cc1,6272,10,·,5.1,-18,0,·
S=c1[nH]nc(-c2cc(-c3ccccc3)n[nH]2)n1/N=C/c1ccc(Cl)cc1,3082,-1,·,·,-16,·,·
COc1ccc(C2CC(c3ccccc3)Nc3nc(NC(=O)c4cccs4)nn32)cc1 (centres undefined),2471,-6,5,-8.1,3,-17,5
CCOc1ccc(S(=O)(=O)c2c[nH]c3ccccc3c2=O)cc1,3412,-5,2,1.0,-10,17,2
Cc1ccc(NC(=O)CCN2C(=O)c3ccccc3Sc3ncccc32)cc1,5940,-4,-8,4.3,-7,2,3
O=C(Cn1cnc2c(nnn2-c2ccccc2)c1=O)NCC1CCCO1 (centres undefined),4491,9,8,-14,-36,-6,4
CCN(CC)S(=O)(=O)c1ccc(C(=O)NC2=C(C(=O)OC)SCC2)cc1,10665,-8,9,8.1,8,11,4
CCCCNC(=O)[C@H]1N2C(=O)c3c(ccc(OC)c3OC)C2SC1(C)C (some centres undefined),3836,0,7,1.6,-18,4,5
COc1ccc([N+](=O)[O-])cc1N(CC(O)CN1CCOCC1)S(=O)(=O)c1ccccc1 (centres undefined),3882,-8,7,3.0,-28,3,3

# Remaining list, next part:
molecule,Bead autofluor,BJeLR lethal,Mtb hypoxia rep growth,RN4220 kill,PrP 5UTR inh,Sa ugtP lethal,Mtb hypoxia rep
Cc1ccc(Oc2ncccc2/C=N/O)cc1,5052,11,·,·,-12,·,·
N#CC1=C(S)N=C(N)C(c2nc(-c3ccccc3)cs2)C12CCCC2 (centres undefined),3069,3,16,0.4,-18,-11,7
CCN(C(=O)COC(=O)Cc1coc2cc(C)ccc12)c1c(N)n(Cc2ccccc2)c(=O)[nH]c1=O,2734,·,-6,25,-15,19,-9
O=C(/C=C/Nc1ccc(F)cc1Br)c1ccccc1,2009,28,-1,2.1,30,7,-6
O=C(NCC1COc2ccccc2O1)C1CCCN(S(=O)(=O)c2cccc3nsnc23)C1 (centres undefined),3805,-2,·,0.5,-5,0,·
CC(=O)N1c2ccc(S(=O)(=O)N3CCC(C(=O)N4CCN(c5ccccc5)CC4)CC3)cc2CC1C (centres undefined),5439,-8,-5,0.9,-21,2,0
N/C(=N\OC(=O)CCCOc1ccccc1)c1cccc([N+](=O)[O-])c1,2394,3,·,·,-6,·,·
CCN1CCCC1CNS(=O)(=O)c1ccc(F)c(Cl)c1 (centres undefined),3456,1,-4,6.1,-1,6,4
Cc1ccc(-c2nnn(CC(=O)NC(=O)NC3CCCCC3)n2)cc1,4905,·,8,-1.2,-32,19,0
COc1ccc(NC(=S)NNC(=O)C(C)n2nc(C)c([N+](=O)[O-])c2C)cc1 (centres undefined),7710,-9,2,4.0,-12,15,4
Cc1cccc(NC(=O)CCNC(=O)c2ccccc2Cl)n1,5906,17,-5,2.1,-14,2,-5
O=S(=O)(O)c1cccnc1SCc1ccccc1,2912,-6,-1,2.6,0,6,7
Cc1cccc(-c2cc3c(N=O)c4ccccc4c-3n[nH]2)c1,2153,17,·,·,-50,·,·
COc1ccc(C=NNC(=O)c2[nH]c(C)c(C(=O)NN=Cc3ccc(OC)cc3)c2C)cc1,·,·,12,-0.9,·,5,7
CCOc1ccc(NC(=S)N/N=C(\C)Cc2ccc(OC)cc2)cc1,2499,-8,·,·,-5,·,·
O=C(Nc1nc(-c2ccccn2)cs1)C1CC(=O)N(c2ccc3c(c2)OCCO3)C1 (centres undefined),10026,3,4,3.8,2,-7,-1
O=C(O)C1=NN(c2c(F)c(F)cc(F)c2F)C(=O)CC1,3904,2,-4,2.1,-21,-1,6
CCc1nc2c(c(=O)[nH]1)C1(CCCC1)Cc1ccccc1-2,13100,2,8,-0.2,-15,-2,9
CCCCC1NC(=S)N(C2CCCCC2)C1=O (centres undefined),2417,-3,2,5.0,-16,89*,2
c1ccc2c(-c3[nH]ncc3CNCCCn3ncc4ccccc43)cccc2c1,4748,4,-2,4.2,-34,1,3
Cc1cccc(NC(=O)Cn2c(O)c(N=NC(N)=S)c3ccccc32)c1,4865,-1,-2,2.4,-1,-10,2
Cc1ccc(S(=O)(=O)NC(=O)NN2CCCCCC2)cc1,5731,3,3,4.1,-10,-4,-3
COCCNC(=S)NN=C(C)c1ccc2cc(OC)ccc2c1,·,·,-7,10,·,3,-3

# Full records from above. Values in the order: Bead autofluor, BJeLR lethal, Mtb hypoxia rep growth, RN4220 kill, PrP 5UTR inh, Sa ugtP lethal, Mtb hypoxia rep
# CCN(C(=O)COC(=O)Cc1coc2cc(C)ccc12)c1c(N)n(Cc2ccccc2)c(=O)[nH]c1=O in the list: 2734, ·, -6, 25, -15, 19, -9
# c1ccc2c(-c3[nH]ncc3CNCCCn3ncc4ccccc43)cccc2c1 in the list: 4748, 4, -2, 4.2, -34, 1, 3
# COc1ccc(NC(=S)NNC(=O)C(C)n2nc(C)c([N+](=O)[O-])c2C)cc1 (centres undefined) in the list: 7710, -9, 2, 4.0, -12, 15, 4
# Cc1cccc(-c2cc3c(N=O)c4ccccc4c-3n[nH]2)c1 in the list: 2153, 17, ·, ·, -50, ·, ·
# O=C(Nc1nc(-c2ccccn2)cs1)C1CC(=O)N(c2ccc3c(c2)OCCO3)C1 (centres undefined) in the list: 10026, 3, 4, 3.8, 2, -7, -1

# Entries shown so far that have a CF3 group (three):
molecule,Bead autofluor,BJeLR lethal,Mtb hypoxia rep growth,RN4220 kill,PrP 5UTR inh,Sa ugtP lethal,Mtb hypoxia rep
O=C(CNc1ccccc1N1CCCC1=O)Nc1cc(C(F)(F)F)ccc1-n1cncn1,3711,·,-5,4.7,-15,6,5
CN(CC(=O)Nc1ccccc1C(F)(F)F)Cc1c(O)ccc2ccccc12,4351,-1,9,-5.7,-14,15,8
CCSc1nnc(NC(=O)C(CC)(C(F)(F)F)C(F)(F)F)s1,3329,11,5,35,-12,15,3
